HSV replic up: enhancers of HSV replication in host cells, fold increase, host cell viability; HSV replication augmentation in cells; maximum fold increase; 220,000 compounds, 0.005% hits;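 active = peak rise of 1.5-fold or more in the series; inconclusive = self-fluorescent or not available for retest; tested in PC3 cells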;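 note: first round at 10 µM; read as green reporter fluorescence; hits show the peak of a series up to 25 µM; 1 = signal of infected wells without compound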
PKD1 inh: inhibitors of human PKD1 kinase, biochemical, fluorescence polarization; PKD1 kinase fluorescence polarization assay; inhibition, %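 (about 10 µM by stock and volumes)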; AID 797, 2007; Serine/threonine-protein kinase D1 (Homo sapiens), Q15139; 200,000 compounds, 0.056% hits;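 active = inhibition of 50% or more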;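 note: controls were vehicle for no effect and a reference inhibitor for full effect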
GALR2 agonist: GALR2 receptor agonists, primary screen, cell-based; Galanin receptor type 2 (Homo sapiens), O43603; GALR2-expressing cells, agonist activation read-out; activation, %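 (tested at 5 µM)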; 140,000 compounds, 0.48% hits;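 active = above mean plus 3 SD of all compounds, about 5% in these data, not always enough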;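 note: 0% = vehicle buffer wells and 100% = reference agonist at full effect; tested in CHO reporter cells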
Target sequence (O43603 whole entry, looked up): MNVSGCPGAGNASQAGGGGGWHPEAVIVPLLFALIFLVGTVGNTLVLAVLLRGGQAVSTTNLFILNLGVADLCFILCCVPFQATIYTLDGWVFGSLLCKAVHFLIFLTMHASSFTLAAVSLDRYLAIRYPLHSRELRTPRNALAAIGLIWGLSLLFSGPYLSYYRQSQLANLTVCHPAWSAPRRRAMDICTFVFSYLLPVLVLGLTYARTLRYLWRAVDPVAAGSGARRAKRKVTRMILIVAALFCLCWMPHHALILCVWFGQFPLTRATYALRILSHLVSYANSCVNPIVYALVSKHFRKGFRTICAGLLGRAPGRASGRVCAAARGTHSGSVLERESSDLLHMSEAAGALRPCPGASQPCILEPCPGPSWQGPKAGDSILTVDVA
Insulin prom inh: inhibitors of insulin promoter-driven GFP, primary screen, imaging, TRM-6 cells (human fetal islet line), eGFP reporter, cell count; reporter expression induced with tamoxifen; inhibition, % at 2 µM; 130,000 compounds, 0.9% hits;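 active = inhibition above the mean plus 3 SD, with well images judged a real hit on visual review, cut at about 60% in these data, passing the limit was not always enough; inconclusive = inhibition over the cutoff but images rejected on review; inactive = inhibition not above the cutoff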
RGS16-Gao: modulators of RGS16 binding to Galphao, primary screen, biochemical, human proteins, multiplexed bead flow cytometry | Regulator of G-protein signaling 16 (Homo sapiens) + Guanine nucleotide-binding protein … | bead-based flow cytometry RGS16-Galphao binding, fluorescence; actives lie on both sides | binding response (% of control), % at 10 µM | 220,000 compounds, 0.38% hits | AID 1441, 2008;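 active = below 25% or above 175%, edge rows of some plates excepted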;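 note: Galphao activated by GDP with aluminum fluoride before binding; 100% = wells without compound and 0% = beads without RGS; some results beyond the cut were filed as inactive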
Target sequence (O15492 whole entry, looked up): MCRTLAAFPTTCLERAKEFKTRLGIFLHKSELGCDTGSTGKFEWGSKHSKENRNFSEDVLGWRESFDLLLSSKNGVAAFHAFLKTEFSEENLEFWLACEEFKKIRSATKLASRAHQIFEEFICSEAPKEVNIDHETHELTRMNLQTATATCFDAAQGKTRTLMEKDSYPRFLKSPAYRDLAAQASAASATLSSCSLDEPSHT
Target sequence (P09471 whole entry, looked up): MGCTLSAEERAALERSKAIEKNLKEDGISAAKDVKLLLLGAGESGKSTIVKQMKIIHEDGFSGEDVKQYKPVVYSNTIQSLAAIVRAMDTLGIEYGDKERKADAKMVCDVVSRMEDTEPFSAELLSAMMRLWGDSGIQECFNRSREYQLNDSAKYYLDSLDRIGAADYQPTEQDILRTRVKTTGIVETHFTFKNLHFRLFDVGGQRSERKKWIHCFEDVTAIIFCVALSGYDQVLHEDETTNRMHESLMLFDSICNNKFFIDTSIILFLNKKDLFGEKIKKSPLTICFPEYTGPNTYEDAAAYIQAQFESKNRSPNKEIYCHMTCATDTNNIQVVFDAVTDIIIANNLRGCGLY
Insulin prom inh cell count: recorded beside Insulin prom inh, whose call it bears; normalized cell count, %; measured here: cell count, toxicity; reference of the scale not given here;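 cells exposed to compound for 48 h; stained nuclei by imaging scaled within each plate; lower means fewer cells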
HSV replic up primary fold: second read-out of HSV replic up, no call of its own (marks repeat the call); fold increase; compound at 10 µM; measured here: primary screen fold increase 10 uM; tested in PC3 cells;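 GFP signal in the first replicate; 1 = infected wells without compound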
The depositor's hits bear a star; i = inactive; ? = inconclusive; . = no result given.

SMILES,HSV replic up,HSV replic up primary fold,PKD1 inh,GALR2 agonist,Insulin prom inh,Insulin prom inh cell count,RGS16-Gao
O=C(NCc1n[nH]c(=S)n1-c1ccc(F)cc1)c1ccco1,i,0.99,-8,-1.1,-157,120,63
Cc1ccc(C2=N/C(=C\c3ccc(OS(=O)(=O)c4ccc(C)cc4)cc3)C(=O)O2)cc1,i,1.1,-6,-0.3,.,.,111
CCN1CCN(C(=O)c2ccc(Cl)c(S(=O)(=O)N3CCCCCC3)c2)CC1,i,1,-1,.,-36,161,102
Cc1ccn2cc(-c3ccc(NC(=O)c4ccco4)cc3)nc2c1,i,0.85,-6,-0.9,14,95,105
O=C(N/N=C/c1ccccn1)c1cccc([N+](=O)[O-])c1,i,0.76,0,.,.,.,109
Cc1cccc(Nc2nnc(-c3ccc(N4CCOCC4)c([N+](=O)[O-])c3)c3ccccc23)c1,i,0.72,-1,-0.2,8,123,107
Cc1cc(=O)oc2cc(Oc3ccc(C(N)=O)cc3[N+](=O)[O-])ccc12,i,1,.,.,.,.,89
CCOC(=O)N1CCN(S(=O)(=O)c2cc(Br)cnc2N)CC1,i,0.97,-6,-2.2,-58,105,102
Fc1ccc(-c2c[nH]c(=S)n2Cc2ccccc2)cc1,i,0.96,-5,.,.,.,97
COc1ccc(C(c2sc3nc(C)nn3c2O)N2CCN(Cc3ccccc3)CC2)cc1OC (stereo unspecified),i,0.99,-1,-1.2,-40,64,99
Cc1cc(C(=O)Nc2ccc(S(=O)(=O)Nc3nccs3)cc2)c(C)o1,i,1,-9,-1.1,-30,106,99
COc1cccc(CNC(=O)CSc2cc(=O)n(C)c3ccccc23)c1,i,0.86,-3,.,40,101,108
COC(C[C@@H](O)[C@H](C)[C@H](O)COCc1ccccc1)OC,i,1,.,.,.,.,97
CCc1ccc(-c2nc(CN3CCC(C(=O)NCc4ccccc4OC)CC3)c(C)o2)cc1,i,0.76,-2,-2.7,.,.,105
CCOc1ccc(Oc2nc(N(CC)CC)nc(N3CCOCC3)n2)nn1,i,0.93,0,.,.,.,102
CCOc1ccc(N(C(=O)CNC(=O)c2cccs2)C(C(=O)NCC2CCCO2)c2ccc(OC)c(OC)c2)cc1 (stereo unspecified),i,0.91,0,.,5,116,101
COc1ccc(O)c(C(=O)c2cc(C#N)c(=O)n(Cc3ccccc3)c2)c1,i,1.1,-2,.,-37,92,93
O=[n+]1c2c(n([O-])c3ccccc31)CCC2,i,0.94,2,-1.7,-20,151,97
CC(NC(=O)c1ccc2nc[nH]c2c1)c1ccccc1 (stereo unspecified),i,0.88,-2,.,.,.,112
CC1Cc2cc(/C(O)=C3\C(=O)C(=O)N(CCN(C)C)C3c3ccccc3F)ccc2O1 (stereo unspecified),i,0.86,1,-1.2,19,87,104
COc1ccc(CC(=O)NNC(=S)NC(=O)c2cccnc2)cc1,i,1,.,.,.,.,104
O=C(O)CNc1ncccc1[N+](=O)[O-],i,1.3,3,.,39,93,99
COc1ccc2cc(N=Cc3nc(-c4ccc(C)cc4)oc3O)cnc2c1,i,0.97,-4,.,.,.,119
Cc1cc(C)n(CCC(=O)N/N=C/c2ccc(Br)c([N+](=O)[O-])c2)n1,i,0.96,.,.,.,.,102
O=c1oc2cc(OCc3c(F)cccc3Cl)ccc2cc1-c1ccccn1,i,0.88,-4,-1.5,.,.,96

Next section.
SMILES,HSV replic up,HSV replic up primary fold,PKD1 inh,GALR2 agonist,Insulin prom inh,Insulin prom inh cell count,RGS16-Gao
Cc1cc(C)nc(NC(N)=NCCc2c[nH]c3ccccc23)n1,i,0.86,4,.,-15,101,98
COc1cc(OC)c(NC(=O)CCCn2c(=O)oc3ccccc32)cc1Cl,i,0.96,-12,-1.4,-7,103,87
NS(=O)(=O)c1ccc(NC(=S)NCc2cccc(Cl)c2)cc1,i,0.97,0,-0.4,.,.,100
Cc1ccc(-n2nnnc2SCC(=O)N2CCc3ccccc3C2)cc1,i,0.92,-12,0.0,8,98,99
Cc1ccc(-n2c(CSc3nc(C)cc(C)n3)nnc2SCC(=O)N2CCCC2)cc1,i,0.84,1,-1.2,36,93,103
N#CCCNc1ccc(OCCC#N)cc1,i,1,0,-0.8,.,.,104
C#CCOCCOCCOCCNc1nc(N2CCN(C(=O)[C@H](CCC(=O)O)n3cc(C(N)CO)nn3)CC2)nc(N2CCN(C(=O)[C@H](CCC(=O)O)n3cc(C(N)CO)nn3)CC2)n1 (stereo partly specified),i,1,.,.,.,.,101
CCOC(=O)N1CCN(C(=O)C2CCC(=O)N2C(C)C)CC1 (stereo unspecified),i,0.95,-9,-1.4,.,.,100
CCc1nc(CN2CCN(c3cc(C(F)(F)F)ccn3)CC2)c(C)[nH]1,i,0.97,.,.,.,.,103
COc1cccc(C(=O)CSc2nc3ccccc3n2CC(=O)N(C(C)C)C(C)C)c1,i,0.93,-18,-0.3,38,129,102
O=C(NC1(C(F)(F)F)NC(=O)N(Cc2ccccc2)C1=O)c1cccs1 (stereo unspecified),i,1,-7,0.0,-58,78,.
O=C(O)c1ccccc1C(=O)NCC(O)COc1ccc(Cl)cc1 (stereo unspecified),i,0.9,.,.,.,.,98
Cc1c(N=C2NC(=O)C(CC(=O)Nc3ccccc3)S2)c(=O)n(-c2ccccc2)n1C (stereo unspecified),i,1.1,0,-1.5,-231,113,110
COc1cccc(COc2nc3c(c(=O)n(C)c(=O)n3C)n2C)c1,.,.,-2,-1.6,i,47,146
COc1ccc(S(=O)(=O)N2CCC(C(=O)NCC(c3cccs3)N(C)C)CC2)cc1 (stereo unspecified),i,0.77,6,-2.2,.,.,102
COc1ccccc1C1=NNC(=Nc2cccc(S(=O)(=O)N(C)C)c2)SC1,i,0.9,-2,.,21,102,102
Cc1cc(C)c2nc(NC(=O)c3ccc4c(=O)n5c(nc4c3)CCCCC5)sc2c1,i,1.1,-10,-1.1,.,.,99
CCC(=O)N1CCC2(CC1)Oc1ccc(Cl)cc1C(=O)C21CC(c2ccccc2)=NO1 (stereo unspecified),i,0.73,.,.,.,.,101
NC(=O)NCc1ccc(F)cc1,i,0.89,-1,.,.,.,100
O=c1c2[nH]c3ccccc3c2nc2n1CCS2,i,0.89,-1,.,.,.,101
COc1ccc(NC(=O)Nc2nnc(-c3ccco3)s2)cc1,i,0.85,.,.,.,.,98
CC(=O)OCC(=O)C1=CCC2C3CCC4=CC(=O)C=CC4(C)C3(F)C(OC(C)=O)CC12C (stereo unspecified),i,0.92,3,.,32,76,66
Cc1cc(C)c(S(=O)(=O)N2CCCOC2CNC(=O)C(=O)NCc2ccco2)c(C)c1 (stereo unspecified),i,1,-7,-1.4,.,.,78
Cc1cccn2c(CN[C@H]3CCCCNC3=O)c(C(=O)N3CCOCC3)nc12,i,1.1,11,.,.,.,108
COc1cccc(NC(=O)COC(=O)C2CCN(S(=O)(=O)c3cccs3)CC2)c1,i,1,9,.,.,.,105

Continued.
SMILES,HSV replic up,HSV replic up primary fold,PKD1 inh,GALR2 agonist,Insulin prom inh,Insulin prom inh cell count,RGS16-Gao
Cc1noc(C)c1CSc1nnc(C)c(=O)[nH]1,i,1.1,-11,-1.7,78*,33*,106
CCOC(=O)c1ccc(S(=O)(=O)NC2CCCCCCC2)n1C,i,0.95,-2,-0.8,-188,62,104
c1ccc(CN2CN=C(Nc3nc4ccccc4s3)NC2)cc1,i,0.9,2,-4.4,-56,152,104
CCC(C)(C)NC(=O)c1ccc2c(c1)N(CC(=O)OC)C(=O)C(C)(C)O2,i,0.89,-1,-1.6,-22,140,95
CCOC(=O)C(O)(NC(=O)c1cccnc1)C(F)(F)F (stereo unspecified),i,1,-4,-1.3,.,.,87
CC1(C)Oc2ccc3ccc(=O)oc3c2C(N2CCCCC2)C1O (stereo unspecified),i,0.72,-14,-0.7,-15,101,101
COC1=C(Nc2ccc(OC)cc2)C(=O)c2ccccc2C1=O,i,0.96,-4,-1.2,7,77,96
O=C(NC1(C(F)(F)F)Oc2ccccc2O1)N1CCCC1,i,0.69,-6,-1.4,-20,84,99
O=[N+]([O-])c1ccc(N2CCCC2)cc1NC(c1ccccc1)c1ccccc1,i,0.88,-16,-0.9,0,153,99
Cc1cccc(C(=O)NCc2nnc(SCC(=O)NC(C)c3ccccc3)n2C)c1 (stereo unspecified),i,1.1,-1,-2.4,-43,67,86
COc1ccccc1OCC(=O)Nc1nnc(-c2ccco2)s1,i,0.87,-8,1.5,-100,99,98
O=[N+]([O-])c1cc(Br)c(O)c(C=Nc2ccc(N3CCOCC3)cc2)c1,i,1.1,-2,.,.,.,99
Cc1nnc(SCC(=O)Nc2sc3c(c2C(=O)c2ccccc2)CCCC3)s1,i,0.7,-6,0.5,-22,27,125
O=C(c1ccco1)N1CCN(S(=O)(=O)c2ccc([N+](=O)[O-])cc2)CC1,i,0.97,-1,.,.,.,111
CCC(C(=O)Nc1ncc(C)s1)c1ccccc1 (stereo unspecified),i,0.96,2,.,11,132,95
Cc1ccc(Nc2c(-c3ccc(N4CCOCC4)cc3)nc3ncccn23)c(C)c1,.,.,0,-1.2,76*,74*,103
CN1CCCCCC1=Nc1ccccc1C#N,i,0.83,-10,-3.7,23,87,109
Cc1cc(NC(=O)c2ccc(S(=O)(=O)N3CCc4ccccc43)cc2)no1,i,1.1,-1,.,.,.,101
CC(C)(C)c1cc(C(=O)N/N=C/c2ccc(F)cc2)n(-c2ccccc2)n1,i,0.74,0,-1.8,-4,99,96
COc1cc(CNCCN(C)C)c(Br)cc1OC1CCCC1,i,0.98,-4,.,.,.,100
Cc1cc(=O)[nH]c(CN2CCC(c3ccccc3)CC2)n1,i,0.87,-4,.,-55,126,100
COc1ccc(/C=C/C(=O)C2C(=O)C=C(C)OC2=O)cc1O (stereo unspecified),?,.,-8,0.4,.,.,100
CCn1ncc(Br)c1C(=O)Nc1cccc(F)c1,i,1,4,.,-73,78,103
COc1ccc(NC(=O)COC(=O)c2c3c(nc4ccccc24)CCCC3)cc1Cl,i,0.98,-5,-2.3,38,134,91
CCOC(=O)c1c(C)[nH]c(C(=O)COC(=O)CNC(=O)c2ccc(Cl)cc2)c1C,i,0.97,-6,0.7,-12,116,102

Only PKD1 inh, for some of the entries so far:
SMILES	PKD1 inh
CC(C)(C)c1cc(C(=O)N/N=C/c2ccc(F)cc2)n(-c2ccccc2)n1	0
Cc1noc(C)c1CSc1nnc(C)c(=O)[nH]1	-11

The listing continues:
SMILES,HSV replic up,HSV replic up primary fold,PKD1 inh,GALR2 agonist,Insulin prom inh,Insulin prom inh cell count,RGS16-Gao
COc1ccc(C(=S)N2CCOCC2)cc1OC(=O)c1cc([N+](=O)[O-])c(C)c([N+](=O)[O-])c1,i,1.1,10,-2.3,26,128,104
COc1cccc(NC(=O)CSc2nc3c(c(=O)n2C)SC(C)C3)c1 (stereo unspecified),i,0.88,-16,-0.1,0,160,101
CCN(CC(O)COCc1ccc(Cl)cc1)C1CCCCC1 (stereo unspecified),i,0.9,3,.,-64,109,105
C=CCNC(=O)c1csc(-c2ccccc2)n1,i,0.95,-2,-0.7,20,87,121
COc1ccccc1Sc1nc(-c2ccccc2)ncc1OC,i,1.1,-1,.,13,113,100
COCCCn1c(SCC(=O)Nc2cccc(C(=O)OC)c2)nnc1-c1ccncc1,i,0.91,3,0.3,-185,44,103
O=C(CSc1ccc(Cl)cc1)N1N=CCC1c1ccccc1 (stereo unspecified),i,1.1,.,.,.,.,91
COc1ccc(NC(=O)CC2C(=O)N(C)C(=S)N2CCc2ccc(F)cc2)cc1 (stereo unspecified),i,0.96,.,.,.,.,91
CN(C)S(=O)(=O)Oc1ccsc1C(=O)Nc1ccccc1Cl,i,0.9,-9,-2.2,10,71,111
CC1(C)Cc2c(c(N3CCOCC3)nc3sc4c(NCCN5CCOCC5)nnnc4c23)CS1,i,0.92,.,.,.,.,96
CCCC(=O)Nc1nc(C)c(-c2csc(Nc3cc(OC)ccc3OC)n2)s1,i,0.88,1,0.4,9,103,102

Bioassay records deposited in PubChem by several laboratories.
